# D2 PAM – positive allosteric modulators of human D2 dopamine receptor; P14416; DiscoveRx D2 beta-arrestin cells, luminescence, 90 min; 100% = 57 uM dopamine signal; potentiation, % (concentration not given with the values); hit rate 0.23% among 360,000; AID 624464; active = potentiation of 50% or more; inconclusive = 30% to 50%; inactive = 30% or less;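 also: compound concentration not given in the record; tested on top of an EC20 dose of dopamine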
#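 PathHunter beta-arrestin assay in DiscoveRx D2 cells. Compounds were added with an EC20 of dopamine (50 nM final) for 90 min at 37 deg C. Luminescence was read 1 h after detection reagent, with 57 uM dopamine as the EC100 control.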
# PINK1 expr mod – modulators of PINK1 expression; PINK1 immunofluorescence, high-content cytometry, 24 h; Potency, µM (titrated, usually from 76.6 µM), inactives show at the highest dose activation (PINK1 increase), hits mostly activators; hit rate 0.2% among 410,000; active = well fitted activation curve with a large enough effect; inconclusive = small, poorly fitted or top-dose-only effect; inactive = flat fitted curve, though single readings scatter; cell line not stated here;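 also: potency is read from the fitted curve at half-maximal effect; % of control where 0% means no effect; nearly all actives have a fitted effect of over 65% in size; a mitochondrial uncoupler was the plate control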
#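 A stable cell line was treated with compounds at 5 concentrations for 24 hours, with CCCP as control. PINK1 levels and mitochondrial localization were measured by immunofluorescence with mitochondrial, cell and nuclear markers after fixation, read by laser-scanning cytometry.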
# CtBP-E1A inh – CtBP/E1A binding inhibition; AlphaScreen GST-E1A/His-CtBP binding, 1536-well; stronger effect = lower value; control for the full effect not named in the record; activity change, % (no concentration beside the values); hit rate 0.49% among 340,000; in the data active means activity change below about -65%; inconclusive means about -30% to -65%; inactive means above about -30%; also: % is scaled to controls: 0 for no effect and ±100 for the full control effect; compound concentration not given in the record
#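 GST-E1A and His-tagged CtBP (125 nM each as 5X stock) were preincubated with pin-transferred compound for 2 h at 37 °C in the dark, then glutathione donor and nickel acceptor beads were added for 1 h before AlphaScreen reading.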
# Sfp PPTase inh – Sfp phosphopantetheinyl transferase inhibition. Biochemical Sfp PPTase activity, qHTS. Potency, µM, for inactives: max response, negative = inhibition, hits mostly inhibitors. hit rate 3.5% among 310,000. AID 1490; active = well fitted inhibition curve with a large enough effect; inconclusive = small, poorly fitted or top-dose-only effect, or another doubt; inactive = no such curve, though single readings can be large or run the other way;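 also: the enzyme is Sfp with the accession as filed and its product quenches rhodamine fluorescence; potency is read from the fitted curve at half-maximal effect; 0% = enzyme reaction without inhibitor and -100% = no enzyme wells; top concentration of the series not given in the record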
#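 Step 1, compound plus 15 nM Sfp-PPTase, 15 min, room temperature. Step 2, add rhodamine-CoA (5 uM) and BHQ-2-YbbR (12.5 uM). Step 3, read 525/598 nm fluorescence at 0 and 30 min.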
# Six1-Eya2 inh – blocks human Six1 binding to Eya2; Q15475+O00167; activity change, % (no concentration beside the values); AlphaScreen GST-Six1/His-Eya2 binding, biochemical; stronger effect = lower value; control for the full effect not named in the record; hit rate 0.56% among 360,000; in the data active = activity change below about -65%; inconclusive = about -30% to -65%; inactive = above about -30%; also: % is scaled to controls: 0 for no effect and ±100 for the full control effect; compound concentration not given in the record
#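 AlphaScreen luminescence read after one hour at 37 °C in darkness. Pin-transferred compounds met GST-Six1 and His-Eya2 protein (5X stock 250 nM/500 nM) plus glutathione donor and Ni-chelate acceptor beads (5X, 50 ug/mL).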
# TRPV1 PAM – human TRPV1 potentiation. potentiation, % at 8.33 µM. TRPV1-expressing cells, Fluo-8 calcium influx, capsaicin EC20 potentiation; host cell line not named in the record; control for the full effect not named in the record. hit rate 0.02% among 320,000. Q8NER1; active means potentiation above 80%; inconclusive means 30% to 80%; inactive means below 30%; also: 0% is about no effect
# Target sequence (Q8NER1 whole entry, looked up): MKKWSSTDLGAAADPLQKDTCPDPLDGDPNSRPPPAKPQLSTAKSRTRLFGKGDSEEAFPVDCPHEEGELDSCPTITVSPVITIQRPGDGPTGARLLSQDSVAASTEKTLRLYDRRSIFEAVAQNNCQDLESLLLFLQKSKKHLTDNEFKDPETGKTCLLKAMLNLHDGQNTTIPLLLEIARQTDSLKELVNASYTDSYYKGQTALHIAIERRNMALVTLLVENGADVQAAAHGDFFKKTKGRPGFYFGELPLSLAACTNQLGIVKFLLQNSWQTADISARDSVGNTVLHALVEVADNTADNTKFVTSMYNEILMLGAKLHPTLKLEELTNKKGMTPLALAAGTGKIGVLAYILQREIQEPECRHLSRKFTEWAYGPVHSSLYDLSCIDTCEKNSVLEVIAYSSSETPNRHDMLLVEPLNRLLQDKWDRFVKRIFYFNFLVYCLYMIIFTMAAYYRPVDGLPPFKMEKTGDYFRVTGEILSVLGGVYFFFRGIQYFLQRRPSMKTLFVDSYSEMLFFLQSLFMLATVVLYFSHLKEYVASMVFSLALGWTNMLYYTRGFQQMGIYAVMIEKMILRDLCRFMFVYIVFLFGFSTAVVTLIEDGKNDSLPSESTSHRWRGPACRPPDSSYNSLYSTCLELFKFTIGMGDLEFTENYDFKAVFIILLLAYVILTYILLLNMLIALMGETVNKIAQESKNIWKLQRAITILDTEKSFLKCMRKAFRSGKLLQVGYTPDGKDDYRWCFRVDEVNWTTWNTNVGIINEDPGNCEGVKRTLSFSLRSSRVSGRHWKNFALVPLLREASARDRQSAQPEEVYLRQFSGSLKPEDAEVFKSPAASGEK
#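 TRPV1-expressing cells were cultured overnight at 35.5C and loaded with Fluo-8 calcium dye for 40 to 90 min at room temperature. After a 10 s baseline, compound was added and calcium influx was read kinetically for 3 min (ex 480/em 520 nm).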
# D2 agonist – activates the human D2 dopamine receptor; P14416; AID 624465; activation, % (no concentration beside the values); hit rate 0.084% among 360,000; DiscoveRx PathHunter D2 beta-arrestin, luminescence, 90 min; 100% = 57 uM dopamine signal; in the data active = activation above about 40%; inconclusive = about 15% to 40%; inactive = below about 15%; also: compound concentration not given in the record; the text of the record calls up to 30% inactive
#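 Agonist mode: compounds alone added to overnight-plated D2 PathHunter cells for 90 min at 37 C, with 57 uM final dopamine (EC100) defining full response. Beta-arrestin recruitment detected by chemiluminescent reagent, read after 1 h at ambient temperature.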
# Starred values were filed as active, the others as inactive; ? = inconclusive; / = not tested or not shown; & = joins results of further samples; [ ] = remark or other dose.
SMILES,D2 PAM,PINK1 expr mod,CtBP-E1A inh,Sfp PPTase inh,Six1-Eya2 inh,TRPV1 PAM,D2 agonist
Cc1noc(C)c1COc1ccc(C(=O)OCC(=O)NC2CCCCC2C)cc1 (stereo not drawn),0,-0.7%,0,3%,2,13,-1.0
CCOC(=O)c1ccccc1NC(=O)COC(=O)CCCOc1ccccc1,-8,-0.8%,13,/,44,1,-4.0
CC(C)N(C)CCOC(=O)/C=C/c1ccccc1,-20,0.7%,-11,8%,10,2,-2.7
COc1ccc(/C=C(/NC(=O)c2ccc(OC)c(OC)c2)C(=O)NCCc2c[nH]c3ccccc23)cc1,2,2.6%,-11,21%,-10,-9,-0.5
COC(=O)CSc1cc(SCC(=O)OC)c(C#N)c(SCC(=O)OC)c1,-2,7.4%,3,-14%,13,-1,-0.5
NC(=O)c1cc2ccccc2o/c1=N\NC(=O)c1ccncc1,1,-1.4%,-20,-15%,-23,5,-2.0
Cc1occc1-c1nnc(SCC(=O)Nc2nccs2)n1Cc1ccco1,-12,-0.5%,-2,-13%,-6,1,-3.4
CCc1nc2ccc(C(=O)NCCCN3CCCC3=O)cn2c1N(CC)CCN(C)C,-3,1.9%,1,/,-5,/,-3.2
COc1cccc(C(=O)N2CCC(CCC(=O)Nc3cccc(C)c3)CC2)c1,-18,?,6,16%,0,-6,-9.4
COc1cc2c(cc1NC(=O)c1ccc(C)c([N+](=O)[O-])c1)oc1ccccc12,-1,16%,-23,19%,-13,13,-1.4

# Of the compounds above, 2 contain sulfur:
SMILES,D2 PAM,PINK1 expr mod,CtBP-E1A inh,Sfp PPTase inh,Six1-Eya2 inh,TRPV1 PAM,D2 agonist
COC(=O)CSc1cc(SCC(=O)OC)c(C#N)c(SCC(=O)OC)c1,-2,7.4%,3,-14%,13,-1,-0.5
Cc1occc1-c1nnc(SCC(=O)Nc2nccs2)n1Cc1ccco1,-12,-0.5%,-2,-13%,-6,1,-3.4

# More entries
SMILES,D2 PAM,PINK1 expr mod,CtBP-E1A inh,Sfp PPTase inh,Six1-Eya2 inh,TRPV1 PAM,D2 agonist
CC1=C(/C=N/Nc2ccc([N+](=O)[O-])cc2[N+](=O)[O-])C(C)(C)CCC1,4,13%,-12,-5%,-14,0,-1.5
COc1ccc(CCNC(=O)Cn2nnc(-c3ccc(OC)c(OC)c3)n2)cc1OC,-2,1.2%,4,8%,0,5,-1.8
CC(C)[C@H](NC(=O)c1ccc(Cl)cc1Cl)C(=O)OCc1nc2ccsc2c(=O)[nH]1,-1,1.6%,/,/,6,/,-2.8
Oc1ccc(Nc2nc(-c3ccc(O)cc3)cs2)cc1,17,2.7%[38.3 µM],-15,6%,-13,29,7.5
COc1cc(C(=O)OCC(=O)NCc2ccco2)cc(OC)c1OC,6,0.7%,-5,-3%,-13,3,-1.6
CCOc1ncccc1C(=O)OCC(=O)Nc1ccc(C(N)=O)cc1,-7,-0.2%,3,15%,-1,-1,3.5
CC(=O)c1cc(C#N)c(N2CCN(c3ccccc3)CC2)nc1C,-27,3.3%,-18,-21%,-4,-3,-1.5
COc1ccc(C(=O)Nc2cc(Cl)cc(Cl)c2)c(OC)n1,-2,-2.3%,12,13%,6,-2,-0.9
O=c1[nH]c(C2CCCN(S(=O)(=O)c3cccc(Cl)c3)C2)nc2c1nnn2Cc1ccc2c(c1)OCCO2 (stereo not drawn),-5,-0.7%,/,-4%,-20,4,1.8
COc1ccccc1C(=O)Nc1ccc(S(=O)(=O)N2CCCC2)cc1,-2,-3.0%[38.3 µM],8,10%,4,-17,-0.2
C=CCn1c(SC(C)C(=O)NCc2ccc3c(c2)OCO3)nc2scc(-c3ccccc3)c2c1=O (stereo not drawn),-24,-2.3%[38.3 µM],-13,-12%,-5,11,1.1
CC1Cc2ccccc2N1S(=O)(=O)c1ccc2c(c1)n(C)c(=O)c(=O)n2C (stereo not drawn),6,4.2%[38.3 µM],38,5%,27,5,-1.5
CN(C)S(=O)(=O)Nc1ccc(Oc2ccccc2)cc1,-20,/,10,15%,1,0,-1.0
O=C(Cc1ccc(Cl)cc1)N1CCOCC1,-6,-0.6%,0,18%,6,-11,-7.0
O=C(CCN1C(=O)c2ccccc2C1=O)c1cnc[nH]1,-4,0.7%,-16,/,14,/,-5.3
Cc1cc(C)n(/N=C/c2ccc(C(C)C)cc2)c(=O)c1C#N,6,8.4%,-19,5%,-12,-4,-0.8
Cc1ccc(NC(=O)CNCC2CCCCC2)cc1S(=O)(=O)N(C)C,-26,-0.3%,/,-29%,1,-11,-4.2
CCOc1ccc(N2CC(C(=O)Nc3c(C)n(C)n(-c4ccccc4)c3=O)CC2=O)cc1 (stereo not drawn),4,0.5%,4,19%,6,4,7.4
COCCCn1c(=O)cc(C)[nH]c1=S,-13,0.1%,/,-6%,2,2,-5.0
COc1ccc(Cl)cc1NC(=O)CN(C)CC(=O)NC(C)c1ccccc1 (stereo not drawn),-12,-0.7%,-1,21%,5,11,0.9

# Some of these compounds in order of molar mass, rising.
SMILES,D2 PAM,PINK1 expr mod,CtBP-E1A inh,Sfp PPTase inh,Six1-Eya2 inh,TRPV1 PAM,D2 agonist
COc1ccc(Cl)cc1NC(=O)CN(C)CC(=O)NC(C)c1ccccc1 (stereo not drawn),-12,-0.7%,-1,21%,5,11,0.9
Cc1noc(C)c1COc1ccc(C(=O)OCC(=O)NC2CCCCC2C)cc1 (stereo not drawn),0,-0.7%,0,3%,2,13,-1.0
CCOc1ccc(N2CC(C(=O)Nc3c(C)n(C)n(-c4ccccc4)c3=O)CC2=O)cc1 (stereo not drawn),4,0.5%,4,19%,6,4,7.4

# Continued:
SMILES,D2 PAM,PINK1 expr mod,CtBP-E1A inh,Sfp PPTase inh,Six1-Eya2 inh,TRPV1 PAM,D2 agonist
CCOC(=O)C1CC(=O)c2cc(OC)c(OC)cc2C1 (stereo not drawn),-6,-0.3%,/,13%,0,-7,-1.7
CSc1nsc(SCC(=O)Nc2cc(C(=O)O)ccc2C)n1,-21,-1.1%,1,-16%,2,5,-1.4
N#CCc1c(C#N)c(N)nc(N2CCCC(O)C2)c1C#N (stereo not drawn),-1,-1.1%,/,12%,-2,0,5.9
O=C(NCc1ccncc1)c1ccc(Br)o1,-4,1.5%[38.3 µM],3,3%,0,-12,-0.2
O=C(NNC(=O)c1ccc(Br)s1)c1ccc(F)c(S(=O)(=O)N2CCOCC2)c1,-5,0.2%,-22,/,-9,18,2.9
CC1(C(=O)NCc2cccs2)Cc2c(-c3ccc(C(N)=O)cc3)ccnc2O1 (stereo not drawn),-5,6.3%,2,/,-8,/,1.6
COc1ccc(N(CC(=O)N2CCN(c3ccccc3F)CC2)S(=O)(=O)c2c(C)n[nH]c2C)cc1,-4,2.9%&0.3%,0,-3%,3,-20,1.7
COc1ccc(OCc2cnc(Cl)s2)cc1,0,-2.0%,16,20%,11,-21,-1.9
CC(C)(C)OC(=O)N1CC(O)CC1C(=O)OCC(=O)c1ccc(Cl)cc1 (stereo not drawn),2,-4.5%[38.3 µM],11,-15%,5,7,0.1
CCC(C)[C@H](NC(=O)c1cc2cc(Cl)ccc2n1C)C(=O)N1CCC[C@H]1C(=O)O (stereo partly drawn),10,-0.6%,2,6%,-1,8,-3.7
CCn1c2ccccc2n2c(=O)c(=O)n(CC(=O)Nc3ccc(C(C)C)cc3)nc12,-19,15%,-5,?,1,5,-3.3
Cc1nc2c(c(C)nn2-c2ccccc2)c(C)c1CCC(=O)Nc1ccc(CN2CCCC2)cc1,-6,-1.6%,-6,-10%,-20,13,-0.9
Cc1ccc(C)c(N2N=C(C(=O)OCC(=O)N(C)c3ccccc3)CCC2=O)c1,-12,0.5%,-4,/,8,-10,-3.4
CC(C)c1cc(Cn2c3ccccc3c(=O)n2C(C)C)on1,2,0.6%,5,/,0,/,4.1
CC(C)Nc1nc(SCC(=O)Nc2ccccc2)nc(N2CCOCC2)n1,-5,1.0%,-5,0%,-8,/,-1.9
CCn1c(COc2ccccc2)nnc1SCc1ccc(C#N)cc1,-22,0.7%,-3,12%,5,-19,-1.9
CC(=O)Nc1cc2c(cc1C(=O)C(C)C)OCCO2,-17,-0.1%,-6,5%,11,6,0.1
COc1ccc(NC(=O)c2cc(-c3cc(Cl)ccc3C)n[nH]2)c(OC)c1,-8,1.4%,1,/,0,/,3.8
O=C(Nc1ccccc1O)c1csc2c1CCCC2,-13,0.8%,-4,8%,-2,-17,-0.8
O=C(NCc1ccc2c(c1)OCO2)c1ccc(-c2ccc(Cl)cc2)o1,-3,6.3%[38.3 µM],6,?,-8,-7,0.6
CC(C(=O)N1CCN(Cc2ccccc2)CC1)n1ncn2cccc2c1=O (stereo not drawn),-3,-0.1%,2,10%,-1,-46,-1.8
OCC1OC(n2ccc3c(NO)ncnc32)C(O)C1O (stereo not drawn),11,-7.2%,-2,/,-2,/,?
CCOc1ccc(NC(=O)NC2(C(=O)NCc3ccco3)CCCCC2)cc1,0,2.2%,0,7%,-12,10,-0.5
Cc1cc(C)cc(OCc2nnc(SCC(=O)OC3CCCCC3)o2)c1,0,1.2%,8,3%,6,0,-0.7
O=C(/C=C\Nc1ccccc1Br)c1ccc2c(c1)OCO2,-10,7.8%,-4,-30%,-13,-2,1.7
CC#CC(=O)N1CCC(CCC(=O)N(C)Cc2ccccc2)CC1,-2,-0.6%,8,11%,-4,-34,-1.8
O=C(Nc1nc(-c2cccs2)cs1)c1ccc(Cl)cc1,-12,3.6%,2,22%,5,-2,-2.7
Cc1ccc(S(=O)(=O)NCCCn2ccnc2)cc1,-6,-2.4%,-11,-5%,4,0,-7.9
COc1cccc(CNC(=O)c2nnn(CC(=O)Nc3cc(C)ccc3C)c2N)c1,-15,11%,3,-5%,3,13,-1.1
O=C(NCCn1cccn1)C1CCC(=O)N(CCc2cccc(F)c2)C1 (stereo not drawn),0,-0.3%,1,-3%,5,-20,-1.8
COCCNC(=O)c1cccc(C)c1[N+](=O)[O-],-4,0.8%,-3,16%,5,0,-2.7
COc1ccc(C(=O)N/N=C(\CCC(=O)O)c2ccc(C(C)(C)C)cc2)cc1OC,-4,1.6%,-16,13%,-1,-3,-3.2
CC(C)(C)NC(=O)CSc1nc2[nH]ncc2c(=O)[nH]1,-4,-0.5%,16,12%,-5,7,-3.8
O=C(c1ccccc1)n1ccn(-c2ccccc2)c1=S,0,-0.2%,5,-8%,4,-8,-3.8
COc1cccc(-c2cc(C(=O)Nc3nc4ccccc4s3)c3ccccc3n2)c1,-17,6.3%[38.3 µM],-9,40µM*,-15,7,-3.4
CCc1noc(C)c1C(=O)N1CCCC(C(=O)c2cc(F)ccc2F)C1 (stereo not drawn),-1,0.4%,3,9%,8,2,-4.8
Brc1ccc(CSc2nnc(-c3cccnc3)o2)cc1,-8,4.1%,-13,3%,2,16,-1.7
